HIV TAR-Tat = TAR RNA-Tat peptide displacers, HIV-1, primary screen, biochemical, FRET, FAM/TAMRA-labeled Tat | 0.6% of 100,000 active | z-score (concentration not given with the values) | HIV-1 TAR RNA, Tat peptide displacement FRET; active compounds read high;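 also: score is relative to mean and SD of negative controls; some compounds called inactive have numbers as strong as hits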
CDC25B-CDK2 inh = primary biochemical HTRF screen for blockers of M-phase inducer phosphatase 2 binding to CDK2/cyclin A. P30305+P24941. HTRF CDC25B-CDK2/CyclinA binding, anti-His/anti-Flag; active compounds read high. z-score (no concentration beside the values). 0.72% of 94,000 active. AID 1259370, 2018;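 also: score is relative to mean and SD of negative controls; strong numbers were not always called active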
* marks the source's active call; other numbers are inactive results; . = not tested or not shown; & = joins results of further samples.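 The calls were made as follows: active = z-score from 3 up in half or more of its runs; inactive = the rest.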 Compounds were not picked by outcome; about 0.9% have a hit in one of these screens.

compound | CDC25B-CDK2 inh | HIV TAR-Tat
Cc1oc2ncnc(N3CCOCC3)c2c1C(=O)Nc1ccc(Cl)cn1 | . | 1.2
COCCNC(=O)C1CCN(S(=O)(=O)N2CCCC2)CC1 | . | 0.89
CCS(=O)(=O)c1nc(S(=O)(=O)c2ccc(C)cc2)c(NCc2cccs2)s1 | -0.72 | 0.85
O=C(CN1C(=O)C2CCCCN2c2ccc(C(=O)N3CCCC3)cc21)NC1CCCC1 (configuration not stated) | . | 1.3
COc1cc(Cl)c(NS(=O)(=O)c2cn(C)cn2)c(OC)c1 | . | -3.5
O=c1c2sc3ccccc3c2n(Cc2ccccc2F)c(=O)n1Cc1ccco1 | -0.46 | 0.16
c1ccc(CCc2nn3c(Cn4nnc5ccccc54)nnc3s2)cc1 | -1.2 | 0.98
CC1CCc2c(sc3nc(CCC(=O)NCc4ccc5c(c4)OCO5)[nH]c(=O)c23)C1 (configuration not stated) | . | -1.4
O=C(O)C1CCN(C(=O)c2ccc3c(c2)NC(=O)C2CCCN32)CC1 (configuration not stated) | -0.01 | 0.22
Cc1ccc(CNC(=O)c2cnc(NCc3ccc4c(c3)OCO4)nc2C)o1 | . | 0.07
COc1ccc(OC)c(Sc2ccc3nnc(-c4ccccc4)n3n2)c1 | -1.1 | .
CC(C)c1ccc(Nc2nc(CC(=O)O)cs2)cc1 | -1.6 | .
CCOc1ccc(-c2cc(-c3nc(-c4ccc(Br)cc4)no3)[nH]n2)cc1 | . | -0.03
CC(C)Cn1cc(NC(=O)NCCc2ccsc2)c2ccccc2c1=O | . | 2.2
CCC(=O)N1c2ccccc2NC2=C(C(=O)CC(c3cc(OC)c(OC)c(OC)c3)C2)C1c1ccc(C)cc1 (configuration not stated) | -1.6 | .
N#Cc1c[nH]n2c(NC3CCCCC3)c(-c3ccc(Br)cc3)nc12 | 0.41 | 2.1
c1ccc(CNCC2OCc3ccccc3CO2)cc1 | -0.29 | .
Cc1cc(C(F)(F)F)nn1CC(=O)Nc1sc2c(c1C#N)CCCC2 | -1.5 | 0.14
Cc1ccc(N2CC(O)=C(c3nc4ccccc4s3)C2=N)cc1C | 1.3 | 0.37
CC(Nc1nc2ccccc2n2cnnc12)c1ccccc1 (configuration not stated) | -0.56 | 1.2
O=C(O)c1nccnc1C(=O)NCc1ccncc1 | -0.29 | .
OCCN1CCN(c2ncnc3c2c(-c2ccccc2)cn3-c2ccc(F)cc2)CC1 | . | 1.6
CCNc1cc(N)[n+](CC)c2n[nH]c(N)c12 | 0.13 | .
CC(C)N1CCC2(CC1)N=C(c1ccc3c(c1)OCO3)CC(c1cc(Br)ccc1O)N2 (configuration not stated) | -0.2 | .
O=C(Cn1c(=O)c2cccn2c2cccnc21)NCc1ccccn1 | . | -0.68
CC1=C(c2ccc(C)cc2)S(=O)(=O)NC1=NCc1cccc(Br)c1 | -2.2 | 0.22
C/C(=N\NC(=S)NCC1CCCO1)c1cccs1 (configuration not stated) | -2 | .
COc1ccc(N=c2scc(C)n2C(=O)c2ccccc2Cl)cc1 | 0.01 | .
CC(C)CNC(=O)C1(c2cccs2)CCOCC1 | . | 1.8
Cc1ccc(S(=O)(=O)NCCc2csc3nc(-c4ccccc4C)nn23)cc1C | . | 0.21
CN(C)c1ccc2nc3c(=O)n(CCc4ccccc4)c(=O)[nH]c3nc2c1 | -0.74 | -6
Cc1ccccc1C(=O)Nc1nnc(SCc2cc(=O)n3[nH]cnc3n2)s1 | . | 0.89
COc1cc(OC)c(NC(=O)c2csc3c2CCC(C)C3)cc1Cl (configuration not stated) | 0.32 | -0.76
O=C(c1cccs1)N1CCN(Cc2noc3ccccc23)CC1 | . | 1.5
CCCS(=O)(=O)N1CCCc2ccc(NS(=O)(=O)Cc3ccccc3)cc21 | . | 1
Cc1ccc(C)c(Cn2nc(C)n3c(cc4cc(C)ccc43)c2=O)c1 | -1.2 | 2.1
CN(CCOC(=O)Nc1ccc(Cl)cc1)c1ncc(C(F)(F)F)cc1Cl | -1.4 | .
COc1ccc(O)c(C2=NN3C(C2)c2cc(Cl)ccc2OC3c2cccnc2)c1 (configuration not stated) | -2.1 | -9
CSC1=C(C#N)C(c2ccccc2Cl)CC(=O)N1 (configuration not stated) | -2.1 | -1.2
CSc1ccc(OC(=O)c2ccc(Cl)cc2)cc1 | -2.1 | .
c1ccc(-c2nnc(CN3CCN(C(c4ccccc4)c4ccccc4)CC3)o2)cc1 | -0.7 | 1.8
CCCc1n(CC(O)COc2ccc(OC)cc2)c2ccccc2[n+]1C (configuration not stated) | -1.8 | 0.42
CN1CCN(c2ccc(NC(=O)c3ccco3)cc2)CC1 | -2.1 | .
CCN(CC)CCNC(=O)C1CCCN(c2nnc(-n3cccc3)s2)C1 (configuration not stated) | 0.47 | -0.88
O=C(COc1ccc(SC(F)(F)F)cc1)NNC(=O)NC(=O)c1ccccc1Cl | -0.75 | .
N#Cc1c(-c2ccccc2)cc(-c2ccccc2)[nH]c1=O | -1.2&-1.1 | .
O=C(NCc1ccccc1)NCC1CCN(CCc2ccccc2)C1 (configuration not stated) | -1.9 | 0.34
O=C1CCCC2=C1C(c1ccc(Br)cc1)n1nc(SCc3ccncc3)nc1N2 (configuration not stated) | -0.08 | .
Cc1cccc(-c2nc(SCc3cc(=O)n4nc(-c5ccccc5)sc4n3)n[nH]2)c1 | . | 1.2
O=C(Nc1ncnc2sc3c(c12)CCC3)c1ccc(F)cc1 | -0.14 | 1.4
Cc1cc2oc(C(=O)NCc3ccc4c(c3)OCO4)cc(=O)c2cc1C | -2 | -2.3
Cc1c(C(=O)N2CCN(c3ncccn3)CC2)sc2nc3n(c(=O)c12)CCCC3 | -0.61 | .
Cc1noc2ncn(CC(=O)N3CCC(N4CCCCC4)CC3)c(=O)c12 | . | 0.97
N#Cc1cc2ccc([N+](=O)[O-])cc2c2ccccc12 | -0.01 | .
CC(c1ccccc1)n1cnc2c([nH]c3ccc(F)cc32)c1=O (configuration not stated) | -0.81 | 0.9
O=C(NCc1ccccc1)c1c(NC(=O)C2COc3ccccc3O2)sc2c1CCCC2 (configuration not stated) | -0.99 | 1.6
CC1=C(C)CC(C(=O)NCc2c(F)cccc2Cl)C(C(=O)O)C1 (configuration not stated) | -0.73 | .
CC1CCN(C(=O)c2oc3ccccc3c2NC(=O)c2cc(-c3cccs3)on2)CC1 | -1.1 | -0.23
Cc1csc(NC(=O)C(NS(=O)(=O)c2ccc(Br)s2)c2ccccc2)n1 (configuration not stated) | -2.2 | .
COC(=O)c1ccc(-c2ncccc2[N+](=O)[O-])cc1 | -0.41 | 1.4

A draw from above in order of molecular weight, smallest number first:
compound | CDC25B-CDK2 inh | HIV TAR-Tat
COC(=O)c1ccc(-c2ncccc2[N+](=O)[O-])cc1 | -0.41 | 1.4
N#Cc1c(-c2ccccc2)cc(-c2ccccc2)[nH]c1=O | -1.2&-1.1 | .
CN1CCN(c2ccc(NC(=O)c3ccco3)cc2)CC1 | -2.1 | .
CCN(CC)CCNC(=O)C1CCCN(c2nnc(-n3cccc3)s2)C1 (configuration not stated) | 0.47 | -0.88
Cc1c(C(=O)N2CCN(c3ncccn3)CC2)sc2nc3n(c(=O)c12)CCCC3 | -0.61 | .
CC1CCN(C(=O)c2oc3ccccc3c2NC(=O)c2cc(-c3cccs3)on2)CC1 | -1.1 | -0.23
O=C1CCCC2=C1C(c1ccc(Br)cc1)n1nc(SCc3ccncc3)nc1N2 (configuration not stated) | -0.08 | .

New compounds follow
compound | CDC25B-CDK2 inh | HIV TAR-Tat
Cc1nc(-c2cccs2)c(CC(=O)NCC2CCCO2)s1 (configuration not stated) | -2.1 | -1.2
CCOC(=O)c1sc(N2C(=O)c3oc4ccccc4c(=O)c3C2c2cccc(Cl)c2)nc1C (configuration not stated) | 0.69 | 2.9
O=c1ccc2cc(S(=O)(=O)NC3CCCc4ccccc43)ccc2[nH]1 (configuration not stated) | . | 8.6
COc1ccc(C(=O)Oc2ccc3c(c2)C(C)=CC(C)(C)N3)cc1OC | -1.7 | 1.9
CCn1c(=O)c2sccc2n2c(CCCC(=O)NC3CC3)nnc12 | . | 0.1
Cc1oc(-c2ccc(OC(C)C)cc2)nc1Cn1c(=O)n(CC2CCCO2)c(=O)c2ccccc21 (configuration not stated) | -2.3 | 1.2
Cc1[nH]nc2c1C(c1ccc(F)cc1)NC2=O (configuration not stated) | 1.3 | 0.54
O=C(COc1ccccc1F)OCc1cc(=O)n2nc(C3CC3)sc2n1 | . | 0.57
CC(C)C1C(=O)Nc2ccc(S(=O)(=O)NCCc3ccc(Cl)cc3)cc21 (configuration not stated) | . | 0.62
COc1ccc(C(=O)Nc2cc(C#N)c3sc4ccccc4n3c2=O)cc1OC | 0.29 | 0.11
CCOc1ccc(Nc2nn3c(C)nnc3c3ccccc23)cc1 | -3.2 | 2.6
Cc1cc(-c2ccc(S(=O)(=O)Nc3ccc(F)cc3)s2)n[nH]1 | . | 0.23
NC(=O)C1CCN(Cn2nnc3ccccc32)CC1 | -1.9 | .
O=C(NNC(=O)c1ccc[nH]1)Nc1cccc(C(F)(F)F)c1 | 0.4 | .
O=C1/C(=C\c2ccsc2)N2CCC1CC2 | -3.1 | .
CCCN(CCC)CCCNc1ccc2nncn2n1 | 0.31 | -0.18
Cc1nnc(NC(=O)c2cc(=O)c3ccccc3o2)s1 | 1 | 0.24
CCc1nc(-c2ccc(-c3ccc(C)cc3)nc2OC)no1 | -0.62 | -0.58
CCOC(=O)C1CCCN(C(=O)CCCn2nc(C)n3c(cc4occc43)c2=O)C1 (configuration not stated) | -0.91 | 2.7
Cn1cc(S(=O)(=O)N2CCc3ccccc32)cc1C(=O)NCc1ccco1 | -1.2 | 0.67
CCOC(=O)c1c(NC(=O)Oc2ccccc2)sc2c1CCC2 | -0.12 | 0.01
CCCN1C(=O)c2cc(C(=O)N3CCN(CC)CC3)nn2CC1(C)C(=O)NC1CCCC1 (configuration not stated) | . | 0.67
CN(C)CCN(C(=O)CCSc1ccccc1)c1nc2c(F)cc(F)cc2s1 | . | 0.05
COc1ccc(CCNc2oc(COc3ccc(Br)cc3)nc2C#N)cc1OC | 2.9 | 0.92
CC(=O)OC[C@H]1O[C@@H](Sc2ccccc2)[C@H](OC(C)=O)[C@@H](OC(C)=O)[C@@H]1OC(C)=O | -1.4 | .
CCc1nn(CC(=O)NCCC2=CCCCC2)c(=O)c2cc3sc(C)cc3n12 | -6.5 | 1.7
O=C(O)CCN1C(=O)c2ccc(Oc3ccc4c(c3)C(=O)N(CCC(=O)O)C4=O)cc2C1=O | -0.37 | .
Cn1ncc2c(N3CCCC3)nc(N3CCN(CCO)CC3)nc21 | . | 0.83
O=C(c1ccco1)N1CCN(c2c3c(nc4ncnn24)CCC3)CC1 | . | 1.9
CC(C)CCN(CCS(=O)(=O)N1CCNCC1)S(=O)(=O)c1ccccc1 | . | 2.2

Compounds from the list above that have a nitro group on carbon (2):
compound | CDC25B-CDK2 inh | HIV TAR-Tat
N#Cc1cc2ccc([N+](=O)[O-])cc2c2ccccc12 | -0.01 | .
COC(=O)c1ccc(-c2ncccc2[N+](=O)[O-])cc1 | -0.41 | 1.4

Additional structures
compound | CDC25B-CDK2 inh | HIV TAR-Tat
Nc1ncnc(NCCc2ccc(Cl)cc2)c1[N+](=O)[O-] | -0.82 | .
CN(CCO)c1ncnc2c1oc1nc3c(cc12)COC(C)(C)C3 | . | 1.5
CCc1ccc2[nH]c(C)c(CN3CCCCC3)c(=O)c2c1 | 0.74 | .
CC1CC(=O)N(CC(=O)NC2CCCC2)c2ccccc2S1 (configuration not stated) | -2.4 | .
CC(C)OC(=O)C1C(=O)CC(C)(O)C(C(=O)OC(C)C)C1c1cccc(F)c1 (configuration not stated) | -0.13 | 2.1
O=C(NC1CCCCC1)C1CCN(c2ccc(-c3cccs3)nn2)CC1 | . | 0.94
Cc1cn2c(=O)cc(COC(=O)c3ccccc3C)nc2s1 | . | 0.41
Cc1nn(CC(=O)NC(C)C)c(=O)c2c1sc1ccccc12 | -0.69 | 2
O=C(Cn1ncc2c1-c1ccccc1OC2)NCCCN(Cc1ccco1)C1CCCC1 | -0.84 | -1.1
NC1=NC(=O)/C(=C/c2ccc(-c3cc(Cl)ccc3Cl)o2)S1 | -3 | .
CC(C)CNC(=O)C1CCN(c2nnc(N3CCCCC3=O)s2)CC1 | . | 1.5
COc1ccc(Nc2nc3ccccc3n3nnnc23)cc1 | -1.1 | 0.03
O=S(=O)(c1ccccc1)c1nnn2c1nc(NCc1cccs1)c1ccccc12 | -3.4 | 2.1
C=CCOC(=O)c1sc(N2C(=O)c3oc4ccc(C)cc4c(=O)c3C2c2ccccc2F)nc1C (configuration not stated) | -0.57 | 1.6
CC(C)c1ccc(OCC(O)Cn2cnc3ccccc32)cc1 (configuration not stated) | -0.57 | -2
O=C(c1[nH]nc2c1COc1ccccc1-2)N1CCN(Cc2ccc3c(c2)OCO3)CC1 | . | 0.97
CCN1CSC(=S)N(Cc2ccco2)C1 | -1.3 | .
COc1ccc(OC)c(NC(=O)CC(C)S(=O)(=O)c2ccc3c(c2)CCN3C(=O)C2CC2)c1 (configuration not stated) | . | 1.2
CC(C)Cn1c(Cc2ccccc2)nc2ccccc21 | -2 | 2.4
Cc1cc(NC(=O)CSc2nc3ccccc3c3nc(CCc4c(C)n[nH]c4C)nn23)n[nH]1 | . | 0.55
CNCCCNCc1ccc2c(c1)n(C)c(=O)n2C | -1.2 | -1
CN1CCc2cc(CO)sc2C1 | . | 1.5
COc1cc(Cl)c(NS(=O)(=O)c2cc(-c3csc(C)n3)ccc2OC)c(OC)c1 | . | -0.26
O=C(NC(c1ccccc1)c1ccccc1)C1=Cc2ccccc2OC=C1 | 0.39 | 0.46

Assay outcomes from PubChem.
